Screening results (PubChem)
H5N1 CPE – antiviral screen in MDCK cells, H5N1 avian flu; cytopathic effect, luminescence, 72 h; active compounds read high; no value below 0 was filed and about half of the inactive calls have no number; reference of the scale not given here; inhibition, % at 50 µM; 96,000 tested, 0.07% active; in the data active = inhibition above about 25%
* = called active by the depositor; i = inactive. These rows are one share of the data; the hit share may differ from the screen's.

Structure,H5N1 CPE
N#CC1(Cc2ccc([N+](=O)[O-])cc2)c2ccccc2C=CN1C(=O)c1ccccc1 (stereo unspecified),0.3
Cc1nc([N+](=O)[O-])c(N2CCN(C)CC2)n1Cc1ccccc1,0.8
O=C(c1ccc(Cl)nc1)N1CCc2ccccc2C1,i
Cc1ccc(S(=O)(=O)CC2CSc3nnc(C)c(=O)n32)cc1 (stereo unspecified),1.8
O=C(CN1C(=O)CCSc2ccccc21)Nc1ccc2c(c1)OCO2,1.0
Cc1ccc(OCCn2cnc3c(N)ncnc32)cc1,0.5
COc1cccc(C(=O)NCc2cccnc2)c1,0.1
Cc1c(C(=O)NCCc2ccc3c(c2)OCCO3)oc2ccccc12,0.3
CCC(C)(C(=O)NC1CCCC1)N(C(=O)CC1NC(=O)NC1=O)c1ccc(C)cc1 (stereo unspecified),0.1
Cc1cc(Cl)ccc1OCc1nc(-c2ccc(O)cc2)n[nH]1,i
O=C(CCN1C(=O)c2ccccc2C1=O)Oc1ccc2ccccc2c1,i
Cc1nccn1-c1ccc(C(F)(F)F)cc1NC=O,i
O=C(NC1CCN(Cc2ccccc2)CC1)C1COc2ccccc2O1 (stereo unspecified),i
CCc1nnc(SCc2ccc(OC)c(Br)c2)n1N,0.5
COc1ccc(C)cc1NC(=O)CSc1nnc(-c2ccc(OC)c(OC)c2)n1N,i
CCCCn1nnnc1NCc1ccc(N2CCCC2)cc1,i
Cc1ccc(C(=O)NCC(=O)OCC(=O)c2c(N)n(C)c(=O)n(C)c2=O)s1,1.2
CC(C)c1ccc(NC(=O)NC2CCCCC2)cc1,i
Cc1ccc(C(=O)c2coc3c2C(=O)C(=O)c2ccccc2-3)cc1,i
COCC(C)N=CC1=C(O)CC(C)(C)CC1=O (stereo unspecified),i
O=c1cc(CN2CCN(Cc3ccccc3)CC2)c2cc(Cl)ccc2o1,0.3
CCOc1cc(C)c(S(=O)(=O)Nc2ccc(Cl)cn2)cc1C,1.1
CN1CCc2c(C#N)c(N3CCCCC3)nc(NCc3ccccc3)c2C1,i
COc1ccc(N2C(=O)CC(N3CCN(S(=O)(=O)c4c(F)cccc4F)CC3)C2=O)cc1OC (stereo unspecified),0.2
Cc1ccc(C(=O)NCCSc2ccc(Cl)cc2)cc1S(=O)(=O)Nc1ccccc1,i
O/N=C1/CC/C(=N\O)c2nn(-c3ccccc3)nc21,2.1
COc1ccc(C(=O)/C=C\c2ccc(NC(=O)c3cccs3)cc2)cc1,i
COc1ccc(C(=O)N2CCN(c3nc4cc(C)ccc4cc3C#N)CC2)c(OC)c1,i
Cc1ccc(C(=O)CSc2nc3ccccc3c(=O)n2-c2ccccc2)s1,0.2
O=C1C(C2=C(O)c3ccccc3C2=O)=Nc2ccccc21,i
CCOC(=O)c1c(NC(=O)C2c3ccccc3Oc3ccccc32)sc(C(C)=O)c1C,i
COc1ccc(C2CC(=O)N3CN(c4ccc(C)c(Cl)c4)CSC3=C2C#N)cc1OC (stereo unspecified),1.0
S=C(Nc1ccccc1)N1CCCCC1,i
CCCC(=O)Nc1c2c(nn1-c1ccc(OC)cc1)CS(=O)C2 (stereo unspecified),i
CCCS(=O)(=O)N1CCCC(C(=O)NCCCOCC)C1 (stereo unspecified),0.2
CCOC(=O)Cc1c[nH]c2ccccc12,1.5
CCOC(=O)CCc1c(C)nc2cc(C3CCCN(C(=O)OC(C)(C)C)C3)[nH]n2c1=O (stereo unspecified),i
CSc1ncccc1C(=O)OCc1ccccc1,i
COc1ccc(-c2cn3cc(Cl)ccc3n2)cc1OC,0.6
Cc1cccnc1NC1(C(F)(F)F)N=C(c2ccccc2)NC1=O (stereo unspecified),2.9
CCN(C(=O)c1sc(N)c(C#N)c1C)C1CCCCC1,0.4
CCn1nnc(-c2ccccc2NC(=O)c2ccc(-n3cnnn3)cc2)n1,i
CC1(C)CC(=O)C(C=NCC2CCN(C(=O)Nc3ccc(Cl)c(Cl)c3)CC2)=C(O)C1,i
CCC(=O)Nc1cc(-c2nn3c(C)nnc3s2)ccc1C,0.4
NC(=O)CSCc1cccc(Br)c1,i
CCCOC(=O)C1=C(C)NC2=C(C(=O)CCC2)C1c1ccc(N(C)C)cc1 (stereo unspecified),0.5
Cc1nc2ccc(NC(=O)N(C(C)C)C(C)C)cc2s1,0.5
CCOc1ccc(N2C(=O)CC(Sc3nc(C)cc(C)n3)C2=O)cc1 (stereo unspecified),1.2
COc1ccc(CC(=O)N2CCN(C(=O)Cc3ccc(OC)cc3)CC2)cc1,i
O=C(Nc1ccc(-c2nc3cc(NC(=O)c4cccs4)ccc3o2)cc1)c1cccs1,i

(list continues)
Structure,H5N1 CPE
COC(=O)c1cc(COc2ccc3c4c(c(=O)oc3c2)CCC4)c(C)o1,0.7
CCCc1cc(=O)n2c(nc3ccccc32)[nH]1,1.1
Cc1cc(C)c2cc(C#N)c(NCCOC(=O)c3ccccc3C)nc2c1,1.6
COC(=O)c1ccccc1NC(=O)n1cc(C)cn1,0.5
Cc1cc(C(=O)NCc2ccc(S(N)(=O)=O)cc2)cs1,i
COC(=O)c1ccc(C2/C(=C(/O)c3ccc(OC)cc3)C(=O)C(=O)N2CC2CCCO2)cc1 (stereo unspecified),i
CC(=O)C1(C)OC(N)=C(C#N)C(c2ccccc2)C1(C#N)C#N (stereo unspecified),i
N#CCCN(C(=O)CN1C(=O)NC2(CCCC2)C1=O)c1ccccc1F,i
O=C(O)CCC(NC(=O)c1cncc(O)c1)C(=O)O (stereo unspecified),i
COCCn1nnnc1C(c1cc2ccc(OC)cc2[nH]c1=O)N1CCc2ccccc2C1 (stereo unspecified),i

16 entries out of the list, ordered by count of non-hydrogen atoms, largest number first.
Structure,H5N1 CPE
COc1ccc(N2C(=O)CC(N3CCN(S(=O)(=O)c4c(F)cccc4F)CC3)C2=O)cc1OC (stereo unspecified),0.2
COC(=O)c1ccc(C2/C(=C(/O)c3ccc(OC)cc3)C(=O)C(=O)N2CC2CCCO2)cc1 (stereo unspecified),i
COc1ccc(C2CC(=O)N3CN(c4ccc(C)c(Cl)c4)CSC3=C2C#N)cc1OC (stereo unspecified),1.0
N#CC1(Cc2ccc([N+](=O)[O-])cc2)c2ccccc2C=CN1C(=O)c1ccccc1 (stereo unspecified),0.3
Cc1ccc(C(=O)NCC(=O)OCC(=O)c2c(N)n(C)c(=O)n(C)c2=O)s1,1.2
O=C(CCN1C(=O)c2ccccc2C1=O)Oc1ccc2ccccc2c1,i
O=C(CN1C(=O)CCSc2ccccc21)Nc1ccc2c(c1)OCO2,1.0
Cc1cccnc1NC1(C(F)(F)F)N=C(c2ccccc2)NC1=O (stereo unspecified),2.9
Cc1nc([N+](=O)[O-])c(N2CCN(C)CC2)n1Cc1ccccc1,0.8
Cc1cc(Cl)ccc1OCc1nc(-c2ccc(O)cc2)n[nH]1,i
CCC(=O)Nc1cc(-c2nn3c(C)nnc3s2)ccc1C,0.4
Cc1nc2ccc(NC(=O)N(C(C)C)C(C)C)cc2s1,0.5
O=C(c1ccc(Cl)nc1)N1CCc2ccccc2C1,i
COc1cccc(C(=O)NCc2cccnc2)c1,0.1
COCC(C)N=CC1=C(O)CC(C)(C)CC1=O (stereo unspecified),i
S=C(Nc1ccccc1)N1CCCCC1,i

The listing continues:
Structure,H5N1 CPE
CCN(CC)C(=O)Cn1cnc2sc(C(=O)N3CCN(c4ccc(OC)cc4)CC3)c(C)c2c1=O,i
CCC(=O)n1nc(-c2ccc(OC)cc2)nc1N,2.3
CCOc1ccc(-c2nnn(CC(=O)Nc3cc(OC)ccc3OC)n2)cc1OCC,i
COc1cc(-c2c(C#N)c(N)nc3c2CCCC3)cc(OC)c1OC,1.1
COC(=O)C(NC(=O)c1ccc(F)cc1)(Nc1nc(C)cs1)C(F)(F)F (stereo unspecified),i
Cc1ccc2nc(SCc3cccc([N+](=O)[O-])c3)nc(C)c2c1,0.1
CN(C)CCCNS(=O)(=O)c1ccc(N2CCC(c3ccc(Cl)cc3)=N2)cc1,i
CC1=C(C(N)=O)C(c2ccccn2)n2nc(SCc3ccccc3Cl)nc2N1 (stereo unspecified),i
COc1ccc(C2C(C#N)=C(/N=C/N3CCN(C)CC3)OC3=C2C(=O)CC(C)(C)C3)cc1OC (stereo unspecified),0.1
CC1CCN(C(=O)CSc2nc3c(cnn3-c3ccc(Cl)cc3)c(=O)[nH]2)CC1,1.6

Following part
| Molecule | H5N1 CPE |
| --- | --- |
| Cc1ccc(S(=O)(=O)N=C2SCCCS2)cc1 | i |
| COc1ccc(OC)c(NC(=O)CS(=O)(=O)Cc2nc(-c3ccccc3C)oc2C)c1 | 0.7 |
| S=c1[nH]ncn1/N=C/c1ccc(N2CCOCC2)cc1 | i |
| Cc1ccc(Oc2nc(-c3ccccc3)ncc2S(=O)(=O)c2ccc(C)cc2)cc1 | 0.4 |
| CC1CCCC(NC(=O)c2ccc3c(c2)N(Cc2ccccc2)C(=O)CS3=O)C1C (stereo unspecified) | i |
| CC(=O)Nc1ccc(-c2nnc(SCc3ccccc3C#N)n2C)cc1 | 0.9 |
| Cn1c(=O)c2c(ncn2Cc2cccc(Cl)c2)n(C)c1=O | 0.9 |
| COc1ccc(C(=O)c2coc3ccc(O)c(CN4CCCCC4)c23)cc1 | i |
| Cc1cc(C)nc(SCC(=O)N/N=C/c2cccn2-c2ccc(O)cc2)n1 | 0.1 |
| O=C1CCC(=O)N1OCCCOc1ccccc1 | 0.1 |
| Cc1occc1C(=O)Nc1cc(C(F)(F)F)ccc1Cl | 4.6 |
| O=S(=O)(c1ccc(F)cc1)N1CCN(c2ccccc2)CC1 | 1.3 |
| O=C(COn1nnc2ccc(C(F)(F)F)cc21)Nc1nnc(-c2ccccc2)o1 | i |
| CC1CCC2C(=O)N(c3ccccc3OC(=O)c3ccccc3)C(=O)C2C1 (stereo unspecified) | i |
| CCn1c(=O)c(C(=O)CN(C)Cc2cccc(OC)c2OC)c(N)n(Cc2ccccc2)c1=O | 0.3 |
| Cc1ccccc1-n1ccnc1SCC(=O)O | i |
| N#C/C(=N\O)c1nc(-c2ccccc2)cs1 | i |
| CC1CN(c2oc(-c3cccs3)nc2C#N)CC(C)O1 (stereo unspecified) | i |
| COc1cccc(C2=NOC(C(=O)Nc3cccnc3)C2)c1 (stereo unspecified) | 0.2 |
| CC(=O)c1c(C)[nH]c(C(=O)CSc2nnc(-c3cccs3)n2Cc2ccccc2)c1C | i |
| Cc1onc(-c2c(F)cccc2Cl)c1C(=O)N1CCCc2ccccc21 | 0.3 |
| COc1ccc(S(=O)(=O)N(CC(=O)NCc2ccco2)c2ccccc2)cc1OC | i |
| Cc1ccccc1N1CCN(c2ncnc3scc(-c4cccs4)c23)CC1 | i |
| COc1ccc(-c2cc(C(=O)Nc3c(C)nn(Cc4ccc(Cl)cc4)c3C)no2)cc1 | i |
| CCOC(=O)c1nn(-c2ccccc2)c(C#N)c1NC(=O)c1nn(CC)cc1Br | 5.0 |
| CN1CCC2(CC1)NC(=O)NC2=O | 0.2 |
| O=C(O)c1ccc(COc2ccc(Cl)cc2)o1 | 0.2 |
| C=CCC(O)(CCN1CCCCC1)c1ccccc1 (stereo unspecified) | 0.6 |
| Cc1cccc(C)c1NC(=O)C(NC=O)c1ccc(Cl)cc1 (stereo unspecified) | 1.1 |
| COC(=O)C(c1ccccc1)N1CCCCCC1 (stereo unspecified) | i |
| CCOC(=O)C1=NN(N=O)C2(CC(=O)N(c3cc(C)cc(C)c3)C2=O)C1 (stereo unspecified) | 2.3 |
| c1csc(-c2nnsc2-c2nc3ccccc3[nH]2)c1 | i |
| C=CCNc1sc(C(=O)c2cccs2)c(N)c1C#N | 0.9 |
| CNc1nc(C)nc(-n2nc(C)cc2C)n1 | i |
| CNC(=O)C(Sc1nc(C)nc2c1oc1ccccc12)C(C)=O (stereo unspecified) | 1.1 |
| CCN1CCCC1CNS(=O)(=O)c1cc(Br)cc2c1N(C(=O)C1CC1)CC2 (stereo unspecified) | 1.0 |
| Cc1ccc(C(=O)Nc2cccc(C(=O)O)c2)cc1S(=O)(=O)N1CCCCC1 | 0.4 |
| CCOC(=O)C1=C(c2ccccc2)Nc2ncnn2C1c1cc(OC)cc(OC)c1OC (stereo unspecified) | i |
| CCCn1c(SCC(=O)Nc2cc(Cl)ccc2OC)n[nH]c1=O | 0.8 |
| NC(=O)Nc1ccc(F)cc1 | i |
| CCN1CCCc2cc(CN(CCN3CCOCC3)C(=O)Nc3ccc(C)c(C)c3)ccc21 | i |
| COC(=O)c1cc2ccsc2n1Cc1nc(-c2cccc(Cl)c2)oc1C | i |
| CCOC(=O)C1(C)NC(c2cc(OC)c(OC)c(OC)c2)C2C(=O)N(CC)C(=O)C21 (stereo unspecified) | 0.8 |
| CCCCC(=O)Nc1cccc(NC(=O)c2ccc(Br)o2)c1 | i |
| C=CCc1ccc(OCCCOc2ccc(C)c(C)c2)c(OC)c1 | 0.6 |
| Cc1cccc(-n2c(C)cc(C=C3C(=O)c4ccccc4C3=O)c2C)c1 | i |
| Cc1ccc(Cn2ccc(NC(=O)c3cc(-c4cccs4)on3)n2)cc1 | i |
| O=c1c2cc(N3CCOCC3)ccc2[nH]c(=S)n1CCN1CCCC1 | i |
| CCCc1nc2ccc(NC(=O)c3ccco3)cc2c(=O)n1Cc1ccc(Cl)cc1 | i |
| CCOc1ccc(C(=O)Nc2c(C(N)=O)oc3ccccc23)cc1 | 0.5 |
| O=C1NC(c2ccccc2)=C(c2nc3ccccc3s2)C(c2ccc(F)cc2)N1 (stereo unspecified) | 0.2 |
| CC1CCCC(C(=O)OCc2ccccc2)N1 (stereo unspecified) | i |
| CCCCN(CC)S(=O)(=O)c1ccccc1 | 0.4 |
| O=C(N/N=C/c1ccccn1)c1ccc(Br)o1 | 1.8 |
| CC(=NCc1ccccc1)C1=C(O)COC1=O | 0.1 |
| N#Cc1c(NCCCO)nc(-c2ccccc2)c2c1CCCC2 | 1.3 |
| Cn1c(=O)c2c(SCC(=O)N3CCCc4ccccc43)nc(C3CC3)nc2n(C)c1=O | 0.6 |
| CC1CC2(CCCCC2)N2C(=O)C(=O)c3cccc1c32 (stereo unspecified) | i |
| Cc1nnc(NC(=O)CSc2nc3c(c(=O)n2CCc2ccccc2)SC(C)C3)s1 (stereo unspecified) | 1.4 |
| COc1ccc(-c2cc(C(=O)NCCc3ccccc3)no2)cc1OC | 0.2 |
| Cc1ccc(SCCC(=O)N2CCCC2)cc1 | 0.1 |
| CCc1ccc(C(=O)N2CCC(c3nc4ccccc4s3)CC2)cc1 | 0.3 |
